MLL AF4-AF9 inh = MLL-AF4/AF9 protein interaction inhibition; inhibition, % at 10 µM; 350,000 tested, 0.47% active; P42568; AlphaScreen, biotin-AF4 peptide binding to FLAG-AF9;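 active = every replicate reaching a set inhibition limit, whatever the replicate mean, cut at about 25% in these data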;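 note: 0% = plate neutral control median and 100% = total signal loss; the record names both 10 and 1 µM as test concentration; the first replicate is given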
Target sequence (P42568 whole entry, looked up): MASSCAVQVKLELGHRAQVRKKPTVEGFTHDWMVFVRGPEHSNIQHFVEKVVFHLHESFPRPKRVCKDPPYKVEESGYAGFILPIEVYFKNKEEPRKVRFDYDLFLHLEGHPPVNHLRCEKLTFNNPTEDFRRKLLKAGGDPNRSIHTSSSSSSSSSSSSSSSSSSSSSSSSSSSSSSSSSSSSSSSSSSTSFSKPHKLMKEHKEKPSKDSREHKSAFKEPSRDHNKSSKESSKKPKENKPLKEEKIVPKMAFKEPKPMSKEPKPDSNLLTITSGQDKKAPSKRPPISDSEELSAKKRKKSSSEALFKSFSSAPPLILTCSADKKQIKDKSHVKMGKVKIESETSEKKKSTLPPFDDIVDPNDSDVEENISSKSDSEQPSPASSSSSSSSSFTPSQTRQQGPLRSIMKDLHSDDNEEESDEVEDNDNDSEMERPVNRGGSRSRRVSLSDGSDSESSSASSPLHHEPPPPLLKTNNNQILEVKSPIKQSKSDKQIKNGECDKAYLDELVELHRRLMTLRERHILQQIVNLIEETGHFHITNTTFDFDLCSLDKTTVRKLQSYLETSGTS
rRNA inh HTS = inhibitors of bacterial rRNA selective over humanized ribosomes. GFP signal change (wild-type ribosome), % (no concentration beside the values). AID 720706. 350,000 tested, 1.6% active. E. coli WT GFP vs humanized-ribosome RFP mutants, fluorescence, 24 h; stronger effect = lower value; DMSO median 0, no signal -100;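 active = significant combined selectivity score with lowered wild-type GFP, culture density cut under 30%, mutant RFP and density less affected; inactive = any of these conditions unmet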; note: one replicate is shown; some compounds called inactive have numbers as strong as hits
FGF22 binding = binders of recombinant human FGF22 by thermal shift; SYPRO orange fluorescence; percent of sucrose octasulfate shift, DMSO zero; calls only at 9.99 µM; 340,000 tested, 1.5% active; AID 651658;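 active = melting point raised past a set limit in the mean and every replicate; three in four hits are not shown here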
Target sequence (Q9HCT0 whole entry, looked up): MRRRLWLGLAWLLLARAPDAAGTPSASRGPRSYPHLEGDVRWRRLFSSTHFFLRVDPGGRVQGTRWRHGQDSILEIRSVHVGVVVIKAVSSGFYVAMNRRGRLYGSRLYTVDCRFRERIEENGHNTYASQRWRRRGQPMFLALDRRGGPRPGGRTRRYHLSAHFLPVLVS
rRNA inh HTS OD600 = further read-out of rRNA inh HTS, marked with its call; OD600 change, %; measured here: OD600 growth;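 optical density of the mix in the first replicate; 0 = DMSO median and -100 = no signal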
rRNA inh HTS RFP = also measured in rRNA inh HTS; calls as there; RFP signal change, %; measured here: RFP humanized mutant strains;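 first replicate; 0 = DMSO median and -100 = no signal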
The depositor's hits bear a star; i = inactive; / = no result given; & = joins results of further samples. Some of the compounds tested. The share of hits here may be higher or lower than overall.

SMILES | MLL AF4-AF9 inh | rRNA inh HTS | rRNA inh HTS OD600 | rRNA inh HTS RFP | FGF22 binding
COCC(=O)Nc1ccc2c(c1)C(=O)N(C)[C@H]1CC[C@H](CC(=O)NCC3CCCCC3)O[C@H]1CO2 | -0.3 | 1.4 | 2.1 | -2.4 | i
Cc1cccnc1C(NC(=O)C1CCN(Cc2ccc(Cl)cc2)CC1)c1ccccc1 (stereo not given) | 5.3 | -51.9 | -72.1 | -16.5 | i
C[C@@H]1CN([C@@H](C)CO)C(=O)c2cccc(NC(=O)c3cnccn3)c2O[C@@H]1CN(C)Cc1ccc(Cl)c(Cl)c1 | 3.7 | -6.5 | -12.0 | 6.3 | i
CCCCC[C@@H]1CCCCC[C@@H](O)C[C@H](O)[C@H](O)/C=C/C(=O)O1 | 0.9 | 0.0 | 1.9 | 1.0 | i
O=C(Nc1ccc2c(c1)OCO2)C1Cc2c(-c3ccc4c(c3)OCO4)ccnc2O1 (stereo not given) | -3.6 | -0.9 | 3.0 | 11.2 | i
CCC(=O)N(C)C[C@@H]1Oc2ncc(C#Cc3ccncc3)cc2C(=O)N([C@H](C)CO)C[C@@H]1C | -28.4 | 7.1 | 3.6 | -3.1 | i
O=C(NC[C@H]1[C@@H](c2ccccc2)[C@H](CO)N1C(=O)C1CC1)NC1CCCC1 | -15.0 | 1.0 | 4.0 | -0.9 | i
COc1ccccc1CN1[C@H](CO)[C@@H](c2ccccc2)C12CN(C(C)=O)C2 | 0.0 | 1.7 | -6.3 | -2.3 | i
CCC/C=C/c1ccc(CN2C(C(C)C)C(=O)N(Cc3cn(CCC4OCCCO4)nn3)CCS2(=O)=O)cc1 (stereo not given) | 4.3 | 4.8 | -1.2 | 3.2 | i
CN1[C@@H]2c3cccc(=O)n3C[C@@H]2[C@@H](CO)[C@@H]1C(=O)NCC1CCCCC1 | 1.3 | 2.9 | 4.2 | 0.6 | i
Cc1noc(C)c1NC(=O)N(C)C[C@H]1Oc2ncc(/C=C/c3ccccc3)cc2C(=O)N([C@H](C)CO)C[C@@H]1C | 2.5 | 8.3 | 10.1 | 1.1 | i
Cc1nn(C)cc1NC(=O)C[C@@H]1CC[C@@H]2[C@H](COc3ccc(NC(=O)Nc4cccc(Cl)c4)cc3C(=O)N2C)O1 | 1.2 | -1.8 | -15.1 | 2.1 | i
C[C@@H]1CN([C@@H](C)CO)C(=O)c2cccc(NC(=O)c3ccc(-c4nccs4)cc3)c2O[C@@H]1CN(C)Cc1ccncc1 | 1.3 | -5.1 | -11.1 | -1.6 | i
O=C(C[C@@H]1CC[C@@H](NC(=O)Nc2cc(F)ccc2F)[C@@H](CO)O1)NCc1ccncn1 | -2.6 | 0.2 | 0.3 | 0.5 | i
O=C(C[C@H]1CC[C@H](NS(=O)(=O)c2ccccc2)[C@H](CO)O1)N1CCN(c2ccccc2)CC1 | -1.7 | -0.9 | 3.7 | -2.2 | i
C[C@@H]1CCCCO[C@H](CN(C)Cc2ccncc2)[C@@H](C)CN([C@H](C)CO)C(=O)c2cc(NC(=O)CCCCCC(=O)Nc3ccccc3N)ccc2O1 | 3.2 | 2.7 | 5.7 | 0.2 | i
Cc1ccccc1S(=O)(=O)N[C@H]1CC[C@H](CCn2cc(-c3ccccc3)nn2)O[C@H]1CO | -1.4 | -2.3 | -1.2 | -4.7 | i
CCC(=O)N1C[C@H](C)[C@H](OC)CN(C)C(=O)c2cc(NC(=O)C3CCOCC3)ccc2OC[C@@H]1C | -1.0 | -1.6 | -0.3 | -2.2 | i
CC12CCC(=O)C=C1CCC1C2C(O)CC2(C)C1CCC21OCC1=O (stereo not given) | -3.4 | 2.9 | 6.4 | 0.9 | i
CCc1nc2c(OCc3cccc(OC)c3)cccn2c1N(C)C(=O)c1ccc(OC)cc1 | -2.3 | -13.2 | -17.1 | -0.2 | i
CCCNC(=O)C[C@@H]1CC[C@H]2NC[C@H](O)COC[C@@H]2O1 | -0.5&-1.4 | 2.8&16.9 | 25.4&10.9 | 0.4&1.3 | i
COc1ccc2c3c([nH]c2c1)[C@H](CO)N(C(=O)Nc1ccccc1F)CC31CCN(C(=O)C2CC2)CC1 | -1.0 | 2.3 | 1.3 | 3.3 | i
CN1CCN(C(=O)C[C@@H]2CC[C@H]3[C@@H](COC[C@H](O)CN3C(=O)Nc3ccc(Cl)cc3)O2)CC1 | -2.3 | -33.8* | -26.6* | -0.8* | i
COc1ccc(CN(C)C[C@H]2OCCCC[C@H](C)Oc3ccc(NC(=O)C4CCCCC4)cc3C(=O)N([C@H](C)CO)C[C@@H]2C)cc1 | -1.6 | 0.2 | -4.9 | -2.7 | i
C[C@H](CO)N1C[C@H](C)[C@H](CN(C)S(=O)(=O)c2ccc(Cl)cc2)Oc2ccc(NC(=O)CCCCCC(=O)Nc3ccccc3N)cc2C1=O | -1.1 | -1.1 | 6.4 | 1.2 | i
CNC[C@@H]1Oc2c(NC(=O)c3ccncc3)cccc2C(=O)N([C@H](C)CO)C[C@@H]1C | -3.8 | 3.3 | 10.9 | -0.5 | i
C[C@H](CO)N1C[C@H](C)[C@@H](CN(C)C(=O)Nc2ccc(C(F)(F)F)cc2)Oc2ccc(NS(=O)(=O)c3cccs3)cc2CC1=O | -1.1 | -0.1 | 1.2 | 2.1 | i
Cc1noc(C)c1NC(=O)Nc1ccc2c(c1)CC(=O)N([C@H](C)CO)C[C@H](C)[C@H](CN(C)S(=O)(=O)c1cccs1)O2 | -2.9 | -3.9 | -1.8 | -2.4 | i
Cc1noc(C)c1NC(=O)N(C)C[C@@H]1Oc2ccc(NS(=O)(=O)c3ccc(Cl)cc3)cc2CC(=O)N([C@@H](C)CO)C[C@H]1C | -0.4 | 2.5 | 13.3 | -2.6 | i
C[C@@H]1CN([C@H](C)CO)C(=O)c2cc(C3=CCCC3)cnc2O[C@H]1CN(C)C(=O)Nc1ccccc1 | -3.5 | 0.4 | 4.5 | -2.1 | i

Looked up by structure from above, three records:
SMILES | MLL AF4-AF9 inh | rRNA inh HTS | rRNA inh HTS OD600 | rRNA inh HTS RFP | FGF22 binding
COc1ccc2c3c([nH]c2c1)[C@H](CO)N(C(=O)Nc1ccccc1F)CC31CCN(C(=O)C2CC2)CC1 | -1.0 | 2.3 | 1.3 | 3.3 | i
CNC[C@@H]1Oc2c(NC(=O)c3ccncc3)cccc2C(=O)N([C@H](C)CO)C[C@@H]1C | -3.8 | 3.3 | 10.9 | -0.5 | i
C[C@H](CO)N1C[C@H](C)[C@@H](CN(C)C(=O)Nc2ccc(C(F)(F)F)cc2)Oc2ccc(NS(=O)(=O)c3cccs3)cc2CC1=O | -1.1 | -0.1 | 1.2 | 2.1 | i

(continued)
SMILES | MLL AF4-AF9 inh | rRNA inh HTS | rRNA inh HTS OD600 | rRNA inh HTS RFP | FGF22 binding
O=C(NCC[C@@H]1CC[C@@H](NS(=O)(=O)Cc2ccccc2)[C@@H](CO)O1)C1CCC1 | -4.2 | 0.4 | 6.8 | -2.1 | i
CC(C)[C@H](C)NC(=O)N(C)C[C@@H]1OCc2ccccc2-c2c(n(C)c3ccccc23)C(=O)N([C@@H](C)CO)C[C@H]1C | -2.0 | -1.3 | 3.6 | -1.3 | i
CNC[C@H]1Oc2c(NC(=O)c3cnccn3)cccc2C(=O)N([C@@H](C)CO)C[C@@H]1C | -2.9 | 4.0 | 2.2 | 0.6 | i
C[C@@H]1CN([C@H](C)CO)S(=O)(=O)c2ccc(/C=C/c3ccccc3)cc2O[C@H]1CN(C)C(=O)Nc1cc(F)ccc1F | 4.9 | 1.3 | 5.6 | 4.1 | i
COc1ccc(-c2ccc3c(c2)O[C@H](CN(C)C)[C@@H](C)CN([C@@H](C)CO)S3(=O)=O)cc1 | -1.9 | -2.0 | -0.5 | 1.0 | i
O=C(c1cc2ccccc2o1)N1CCN(CCOc2ccccc2)CC1 | 0.9 | -5.2 | -13.6 | 3.4 | i
CN1CCN(C(=O)C[C@H]2CC[C@@H]3[C@@H](COc4ccc(NC(=O)C5CCCCC5)cc4C(=O)N3C)O2)CC1 | -12.9 | 6.4 | 7.0 | 2.8 | i
CCC(=O)N1CC2(CN(Cc3ccccc3Cl)C2)c2c([nH]c3cc(OC)ccc23)[C@@H]1CO | 28.5* | -45.2 | -76.3 | 1.7 | i
N#C[C@H]1[C@@H](c2ccccc2C2=CCCC2)[C@@H](CO)N1S(=O)(=O)c1ccccc1 | 0.5 | -5.2 | -36.6 | 6.7 | i
COc1cccc(CNC(=O)[C@@H]2CCCN2C(=O)[C@@H]2CCCN2C(=O)c2ccc(Cl)cc2)c1 | 0.3 | 6.8 | 12.5 | 1.7 | i
C[C@@H]1CN([C@@H](C)CO)C(=O)c2cc(NC(=O)Nc3ccccc3)ccc2O[C@@H](C)CCCCO[C@H]1CN(C)CC1CCCCC1 | 0.8 | -0.8 | -17.8 | 4.1 | i
C[C@H]1CCCCO[C@H](CN(C)C(=O)Nc2ccc(F)cc2)[C@@H](C)CN([C@@H](C)CO)C(=O)c2cc(NC(=O)Cc3ccccc3)ccc2O1 | -0.6 | 0.0 | 3.2 | 0.5 | i
CC[C@]1(C(=O)OC)[C@H]2C(=O)N(Cc3ccccc3)C(=O)[C@H]2[C@H]2CN=C(SCc3ccccc3)N21 | 0.9 | -30.1 | -42.8 | -8.5 | i
CC(C)(C)S(=O)N1C[C@@H]2CC(=O)C(c3ccccc3)=C2[C@H]1CCO (stereo not given in full) | -5.0 | -3.5 | -2.2 | 2.1 | /
CCCC(=O)Nc1ccc2c(c1)C(=O)N(C)[C@H]1CC[C@@H](CC(=O)NCCCN(C)C)O[C@H]1CO2 | 2.1 | 3.7 | 3.6 | -1.8 | i
CN(C)CC(=O)Nc1ccc2c(c1)[C@@H]1C[C@H](CC(=O)NCc3cc(F)ccc3F)O[C@@H](CO)[C@@H]1O2 | -0.8 | 1.4 | 1.1 | -1.2 | i
CCC(CC)n1c(C)cc(=O)n1C(CC)CC | 1.0 | 4.7 | 11.2 | 0.2 | i
CN(C)c1ccc(C=C2C=Cc3ccccc32)cc1 | 3.5 | 3.0 | 8.7 | 3.6 | i
COc1ccc(S(=O)(=O)N[C@@H]2CC[C@H](CCNC(=O)c3ccccc3F)O[C@H]2CO)cc1 | 0.9 | 1.4 | 1.8 | -1.8 | i
CCN(CC)c1ccc(NC(=O)COC(=O)CCc2cc(OC)c(OC)c(OC)c2)cc1 | 14.4 | -7.8 | -8.9 | 4.6 | i
COc1ccc2c3c(n(C)c2c1)[C@@H](CO)NCC31CCN(CC2CCCC2)CC1 | 12.9 | 5.1 | 2.5 | -3.8 | i
O=C(CN1CCOCC1)N1CCCCN2[C@H](CO)[C@H](c3ccc(Br)cc3)[C@H]2C1 | 1.2 | -0.3 | 12.1 | -1.0 | i
OC(c1ccc(F)cc1)c1nc(-c2cccc(C(F)(F)F)c2)cs1 (stereo not given) | -4.8 | -58.0 | -80.8 | -18.9 | i
C[C@H]1CCCCO[C@H](CN(C)S(=O)(=O)c2ccccc2)[C@@H](C)CN([C@@H](C)CO)C(=O)c2cc(NC(=O)Nc3ccc4c(c3)OCO4)ccc2O1 | 10.1 | -0.8 | 2.4 | -0.4 | i
CCCNC(=O)N1[C@H](CNC(=O)CC)[C@@H](c2ccc(C3=CCCC3)cc2)[C@@H]1CO | -3.5 | 2.2 | -8.9 | 3.5 | i
CO[C@@H]1CN(C)C(=O)c2cc(NC(=O)C3CCOCC3)ccc2OC[C@@H](C)N(CC2CC2)C[C@H]1C | -2.9 | 2.0 | 10.3 | 1.5 | i
COc1ccc2c3c([nH]c2c1)[C@H](CO)N(C(=O)NC(C)C)CC31CCN(C(=O)C2CCCC2)CC1 | 3.6 | -4.1 | 6.6 | -3.9 | i
C/C=C/c1ccc([C@@H]2[C@@H](CO)N(c3nc(CC)cs3)[C@@H]2CNC(C)C)cc1 | 8.2 | -16.6 | -56.0 | 35.2 | i
Cc1noc(C)c1NC(=O)Nc1ccc2c(c1)C(=O)N([C@H](C)CO)C[C@H](C)[C@H](CN(C)S(C)(=O)=O)O2 | -1.6 | 0.2 | 1.8 | -1.6 | i
O=C(c1ccc2c(c1)OCO2)N1CC[C@@H]2[C@@H](CO)Nc3ccc(-c4ccccc4)cc3[C@@H]21 | 0.4 | 2.0 | -26.4 | 15.6 | i
Cc1noc(C)c1S(=O)(=O)Nc1cccc2c1O[C@@H](CN(C)Cc1ccc(Oc3ccccc3)cc1)[C@@H](C)CN([C@H](C)CO)C2=O | 5.4 | -2.4 | -12.8 | 2.1 | i
C[C@H](CO)N1C[C@H](C)[C@H](CN(C)S(=O)(=O)c2cccs2)Oc2c(NC(=O)Nc3ccc(C(F)(F)F)cc3)cccc2C1=O | -0.5 | -2.4 | 13.4 | -4.3 | i
O=C(C[C@H]1CC[C@H]2[C@@H](COC[C@@H](O)CN2Cc2cc(F)ccc2F)O1)NCc1ccc(F)cc1 | 0.5 | -5.9 | -8.5 | 3.3 | i
Nc1[nH]c(C(=O)c2ccccc2)c(-c2ccccc2C(F)(F)F)c1C(=O)NCc1cccc2ccccc12 | -0.4 | 1.8 | 2.4 | 8.8 | i
